High-throughput results as filed in PubChem BioAssay.
NPYLR7 ag: activates Aedes aegypti NPYLR7 receptor; AID 1259423; activation, % at 10 µM; actives 0.15% (n = 270,000); HEK293T NPYLR7/Galpha15, GCaMP6s calcium fluorescence; in the data active means activation above about 40%;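 further: 0% = vehicle and 100% = reference agonist at the receptor; some compounds past the cut are filed as inactive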
NPYLR7 ag max-min: recorded beside NPYLR7 ag, whose call it bears; activation, %; measured here: Max-Min RFU normalised activation; some inactives read as strong as hits;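 span of the calcium signal over five minutes; 0% = vehicle and 100% = native peptide agonist; compound fluorescence can raise it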
* marks the source's active call; other numbers are inactive results; & = joins results of further samples. Only part of the results is shown; rates above refer to the full screens.

Compound,NPYLR7 ag,NPYLR7 ag max-min
CC(C)NC(=O)CN1CCN(C(=O)c2cc3cc(Br)ccc3[nH]2)CC1,3,0
O=C(C=Cc1ccccc1)N=C1N=C2C=CC(Cl)=CN2Cc2ccccc21,-6,-9
CCOC(=O)c1[nH]c2c(CC)cccc2c1CCN1C(=O)c2ccccc2C1=O,-24,-23
CCN(CC)CCNC(=O)c1cc(N2CCCCCC2)ccn1,0,-5
CCOc1ccc(CN2C(=O)C3(SC(NC(C)=O)=NN3C(C)=O)c3cc(C)ccc32)cc1 (stereo unspecified),4,3
CCCCc1nc(N2CCN(S(=O)(=O)Cc3ccccc3)CC2)c2c(-c3ccccc3)noc2n1,16,11
Cc1cnn(CC(=O)C(C#N)c2nc3cc(Cl)ccc3c(=O)[nH]2)c1 (stereo unspecified),-5,-4
Cc1oc(C)c(S(N)(=O)=O)c1C(=O)N1CCN(C)CC1C (stereo unspecified),9,5
O=C(Cc1cccs1)OCCCN=C1NS(=O)(=O)c2ccccc21,-3,-5
O=C1NCCN(C(=O)CCC2CCCC2)C1CCO (stereo unspecified),5,3
CCOCCCn1c(SCC(=O)NCCOCC)nc2cc(C(=O)OCC)ccc21,3,0
O=c1[nH]cc(F)c(=O)[nH]1,-5&2&0,-12&0&-30

Compound,NPYLR7 ag,NPYLR7 ag max-min
COc1ccc(CCNC(=O)c2cn(C)nc2OC)cc1,2,4
O=[N+]([O-])c1ccc(C=NNc2nc(-c3ccccc3)c3ccccc3n2)o1,9,9
O=C(c1ccc(Cl)c(Cl)c1)N1CCN(C(c2ccccc2)c2ccc(F)cc2)CC1 (stereo unspecified),-3,9
O=C(c1cc(COc2ccc3c(c2)CCCC3)on1)N1CCCN(c2ncccn2)CC1,4,-2
CCc1ccc(S(=O)(=O)N2CCN(c3ccc4nncn4n3)CC2)cc1,1,7
CCCn1ncc(C(=O)N(C)Cc2nc3ccc(F)cc3[nH]2)c1C,-4,-6
Cc1cc(C(=O)N(C)CC(=O)Nc2ccccc2Br)no1,3,0
CN(C)S(=O)(=O)CCNC(=O)c1cccc2nccnc12,1,0
Cc1ccc(-c2nc(CN3CCc4[nH]ncc4C3)c(C)o2)s1,7,3
O=C(COc1cccc2ccccc12)NCc1ccccc1CN1CCOCC1,-5,-5
CC(C)CCN(CCC(C)C)C(=O)CSc1nnc(N)s1,0,34
CC(C)Cc1nc2c(OCc3ccccc3)cccn2c1NCc1ccccc1,0,4

Compound,NPYLR7 ag,NPYLR7 ag max-min
CC(=O)Nc1ccc2nc(CN3CCN(Cc4ccccc4C)C(CCO)C3)ccc2c1 (stereo unspecified),3,-5
COc1cc(CC(=O)N2CCOC(COc3ccc(Cl)c(C)c3)C2)cc(OC)c1OC (stereo unspecified),3,0
COCCCN(CC(=O)N1CCc2sccc2C1COc1cccc(F)c1)C(=O)c1cccc(Cl)c1 (stereo unspecified),-2,5
NCc1cc(-c2ccc3c(c2)OCCO3)on1,0,0
CN(C(=O)CN1CCN(c2cc(-c3cccc([N+](=O)[O-])c3)ncn2)CC1)c1ccccc1,3,2
Cc1[nH]c(=O)[nH]c(=O)c1CC(=O)NCCn1nc(-c2ccco2)ccc1=O,3,2
COc1cc(OC)cc(C(=O)Nc2ccc(S(=O)(=O)Nc3nc(C)cc(C)n3)cc2)c1,12,6
Cc1cc(O)c2c(CN3CCN(c4ccccc4)CC3)cc(=O)oc2c1,-8,-11
COc1ccc(CN2CCCCC2C(=O)Nc2ccc(-n3cnnn3)cc2)cc1F (stereo unspecified),18,9
O=C(/C=C/c1cscn1)NS(=O)(=O)c1cccc2ncccc12,2,0
O=C(c1ccc([N+](=O)[O-])cc1Cl)N1CCCN(c2nc(Cc3ccc(F)cc3)ns2)CC1,7,7
COC[C@H]1CCCN1Cc1ccc(C(=O)Nc2nc(C)n(C)n2)cc1,-5,-7

Compound,NPYLR7 ag,NPYLR7 ag max-min
CCCCCC(=O)N1CCC(C(=O)O)CC1,-2,51
CN(CC1CCOC1)c1ccc(C#N)cc1F (stereo unspecified),17,10
COc1ccc(CNC(=O)N2CCCCC2CCN2CCCC2=O)cc1 (stereo unspecified),10,10
CCCCCCCC(=O)Nc1c(-c2cccc(Cl)c2)nc2cc(C)ccn12,-2,-2
CCc1nc2ccc(C(=O)NCCCn3ccnc3)cn2c1N(C)C(=O)Nc1ccccc1OC,-4,-7
O=C(Cn1c2ccccc2c(=O)c2ccccc21)Nc1ccc2c(c1)OCCO2,-4,-8
O=S(=O)(NCCOc1ccc(-c2ccco2)nn1)c1ccc2c(c1)CCCC2,-7,-6
COc1ccc(-n2c(CCC(=O)N3CCN(c4ccccc4)CC3)ccc2-c2ccc(Cl)cc2)cc1,-2,-1
Cc1cccc(-c2nnc(SCC(=O)NCC3CCCO3)n2-c2ccccc2)c1 (stereo unspecified),8,13
COc1cc(C2SCCS2)ccc1OCc1ccc(C#N)cc1F,0,1
COCCN1CCN(c2cc(Oc3ccc(F)c(F)c3)ncn2)CC1,-8,-2
Cc1c(CCC(=O)N(C)C2CCc3ccccc32)c(=O)[nH]c2c1c(=O)[nH]n2C (stereo unspecified),0,3

Compound,NPYLR7 ag,NPYLR7 ag max-min
NC(=O)c1cccnc1N1CCC(n2cc(-c3ccccc3Cl)nn2)CC1,2,0
Cc1cccn2cc(C(=O)NCCc3nncn3C(C)C)nc12,1,-32
CN1CCN(c2ccccc2NC(=O)Oc2ccccc2)CC1,3,3
CCn1c(SCC(=O)O)nc2c([nH]c3ccccc32)c1=O,2,0
CCC(C)NC(=O)C(NC(=O)c1ccccc1Cl)C1CCN(C(=O)c2cccc(F)c2)CC1 (stereo unspecified),1,2
Cc1nc(CCNC(=O)CN2C(=O)NC(=O)C2(C)C)sc1C,7,5
C=CCSc1nnc2c(n1)OC(c1cccs1)Nc1ccccc1-2 (stereo unspecified),15,8
CN=c1scc(C)n1N=Cc1ccc(O)cc1O,-15,-17
CN(c1ccccc1)N1CC(C(=O)NCc2cccs2)CC1=O (stereo unspecified),-1,-7
O=C(Nc1ccccc1)N1CCCNCC1,-5,-5
Cc1nn(C)c(N(C)C)c1CNCc1ccc2c(c1)CCCN2C,7,5
COc1ccccc1C1=NOC(CN(Cc2cccc(C(F)(F)F)c2)C(=O)c2cccc(F)c2)C1 (stereo unspecified),22,33

Compound,NPYLR7 ag,NPYLR7 ag max-min
CCN(Cc1nc2ccccc2o1)Cc1c(F)cccc1F,0,0
CN(C)c1ncc(CN2CCOC(CCc3ccccc3)C2)s1 (stereo unspecified),6,6
Cn1cnn(CNC(c2ccc(F)cc2)C(C)(C)C)c1=S (stereo unspecified),0,16
COc1cc(OC)cc(C(=O)N2CCN(c3ccc4c(c3)CCC4)C(=O)C2C)c1 (stereo unspecified),-2,3
O=C(Nc1nc2ncccc2cc1-c1ccccc1)c1cccs1,3,7
C=CCOC(CN1CCN(S(=O)(=O)c2ccc(C(F)(F)F)cc2)CC1)c1cccc(OC)c1 (stereo unspecified),-3,9
Cc1ccc(S(=O)(=O)NCc2ccc3c(c2)cc(C)n3C)cc1,2,8
COc1ccc2oc(=O)c(C(=O)Nc3cc(C(=O)O)ccc3C)cc2c1,-6,-15
CC(=O)c1ccc(C(=O)N2CCCC(C(=O)c3ccc(-c4ccccc4)c(F)c3)C2)s1 (stereo unspecified),2&-2,1&-7
Cc1oc(C)c(C(=O)Nc2nc(-c3ccc(F)cc3)c(C)s2)c1Cl,4,3
COC(=O)CNC(=O)CSc1nc2ncc(Cl)cc2[nH]1,13,17
CN(CC(=O)NC(=O)NC1CC1)c1ccccc1-c1ccccc1,-1,4

Compound,NPYLR7 ag,NPYLR7 ag max-min
Nc1nonc1C(=Nc1ccccc1)NOCc1ccc(Cl)cc1Cl,3,3
CCOc1ccc(-c2cc3c(=O)n(CC(=O)Nc4cccc(C(F)(F)F)c4)ccn3n2)cc1,2,0
Cc1csc(NC(=O)CNC(C)c2ccccc2Cl)n1 (stereo unspecified),11,5
O=S(=O)(Cc1ccccc1)NCCNCc1ccco1,4,3
Cc1ccn2c(NC(=O)CCC3CCCC3)c(-c3ccccc3)nc2c1,-10,0
Cn1ccnc1SCc1cc(=O)c(OC(=O)c2ccc(S(=O)(=O)N3CCOCC3)cc2)co1,-10,-12
Cc1noc(C)c1Cn1c(C)c(C(=O)N(C)Cc2ccc(F)cc2)sc1=O,-9,1
CCCSc1nc2c(c(=O)[nH]c(=O)n2C)n1CCC(C)C,-8,4
COc1ccc(-c2cc(OC)nc(N)n2)c(OC)c1,3,2
CC(C)(C)c1nn(-c2cccc(Cl)c2)c2c1C(c1ccc3c(c1)OCO3)SCC(=O)N2CC(=O)NCC1CCCO1 (stereo unspecified),26,35
COc1ccc(-c2noc(COc3c(C)nc(C)nc3C)n2)cc1,8,5
CCc1c(C(=O)O)cnn1-c1ccccc1C,1,4

Compound,NPYLR7 ag,NPYLR7 ag max-min
N#C/C(=C\c1cc([N+](=O)[O-])ccc1Cl)c1nn(-c2ccccc2)c(N)c1C#N,-3,-6
CN(Cc1cc2n(n1)CCCNC2)Cc1cccc2cccnc12,-5,-10
CCCN(C(=O)CSc1nc(C)nc2sc(C)c(C)c12)C1CCS(=O)(=O)C1 (stereo unspecified),0,6
Cc1nccn1-c1ccccc1CNC(C)Cn1cncn1 (stereo unspecified),9,1
Cc1onc(-c2ccccc2)c1C(=O)Nc1ccc2c(c1)OCCO2,-10,-16
CC1CN(C(C)C(=O)NC(c2ccccc2)c2ccccc2)CCO1 (stereo unspecified),-9,-11
COc1ccc(Nc2nc(-c3ccc(OC)cc3)nc3ccccc23)cc1,-8,-7
Cn1cnnc1SCC(=O)c1c(N)n(C2CC2)c(=O)[nH]c1=O,1,5
COc1ccc2oc(=Nc3ccccc3OC)c(C(=O)NC(C)=O)cc2c1,2,-2
CCCc1c(C)nn(-c2ccc(C(=O)NCCCN3CCOCC3)cc2)c1C,18,9
O=C(Cc1ccc(Cl)cc1)N(Cc1cccnc1)c1nc2c(F)cc(F)cc2s1,3,4
CCCCN(CC(=O)N1c2ccccc2-n2cccc2C1c1ccc(Cl)cc1)C(=O)c1ccc(F)cc1 (stereo unspecified),9,8

Record cards (already shown). Values in the order: NPYLR7 ag | NPYLR7 ag max-min
`Cc1nn(C)c(N(C)C)c1CNCc1ccc2c(c1)CCCN2C` in the list: 7 | 5
`COc1cc(OC)cc(C(=O)N2CCN(c3ccc4c(c3)CCC4)C(=O)C2C)c1` (stereo unspecified) in the list: -2 | 3
`O=C(c1cc(COc2ccc3c(c2)CCCC3)on1)N1CCCN(c2ncccn2)CC1` in the list: 4 | -2
`CCCN(C(=O)CSc1nc(C)nc2sc(C)c(C)c12)C1CCS(=O)(=O)C1` (stereo unspecified) in the list: 0 | 6

A second format for some results above.
Value order: NPYLR7 ag, NPYLR7 ag max-min
COc1ccc2oc(=Nc3ccccc3OC)c(C(=O)NC(C)=O)cc2c1
 : 2, -2
COc1ccc(Nc2nc(-c3ccc(OC)cc3)nc3ccccc23)cc1
 : -8, -7
O=C(Cc1ccc(Cl)cc1)N(Cc1cccnc1)c1nc2c(F)cc(F)cc2s1
 : 3, 4
Cc1onc(-c2ccccc2)c1C(=O)Nc1ccc2c(c1)OCCO2
 : -10, -16

Continued:
Compound,NPYLR7 ag,NPYLR7 ag max-min
O=S(=O)(Nc1ccccc1)c1cccs1,-2,-5
CCOC(=O)C1CCN(C(c2cccc(OC)c2)C2Sc3nc(CC)nn3C2=O)CC1 (stereo unspecified),-2,6
CN(C#N)c1nc(N2CCOCC2)nc(N2CCOCC2)n1,1,-1
Cc1ccc(-n2c(SCc3ccc(C(=O)N4CCCC4)cc3)nnc2-c2ccccc2Cl)cc1,5,-3
Cc1cc(NCCN2CCOCC2)n2nc(C(F)(F)F)c(-c3ccccc3Cl)c2n1,1,-10
CN(C)c1ccc(N=C2N=C(Nc3ccc(N(C)C)cc3)c3ccccc32)cc1,0,22
CC(C)(C)NC(=O)N1CCN(c2cc(N3CCCC3)ncn2)CC1,-4,-5
O=C(Cc1coc2cc3c(cc12)CCC3)N1CCN(c2nccs2)CC1,10,7
COc1ccc(OC)c2c1CN(c1cncc(Cl)n1)CC2O (stereo unspecified),2,1
Cc1nc2n(n1)C(=O)C(C(c1ccccc1Cl)N1CCN(c3ccc(F)cc3)CC1)S2 (stereo unspecified),-1,-6
COc1cccc(CNC(=O)CCC2CCCN(C(=O)C3=CC(=O)CC(C)(C)O3)C2)c1 (stereo unspecified),5,2
CN(Cc1cc2ccccc2o1)C(=O)Nc1ccc(C(N)=O)c(F)c1,-14,-16

Compound,NPYLR7 ag,NPYLR7 ag max-min
CN(NC(=O)C1CCCCC1C(=O)N1CCC(C#N)(c2ccccc2)CC1)c1ccccc1 (stereo unspecified),-7,-14
CCOC(=O)N1CCN(C2CCCN(C(=O)c3cc(C)c[nH]3)C2)CC1 (stereo unspecified),2,-4
Cc1cc(C(=O)N(CCN(C)C)c2nc3ccc(F)cc3s2)no1,5,2
CCCC(=O)N1CCC1(C)C(=O)Nc1ccc(C)cc1 (stereo unspecified),6,2
CCOC(=O)CC1(C)OCCC(C)O1 (stereo unspecified),-15,-22
CCOC(=O)c1c(NC(=O)C=Cc2ccco2)sc2c1CCC(C)C2 (stereo unspecified),-7,-10
COc1ccc(S(=O)(=O)N2CCCC(C)C2)cc1N1CCN(C(=O)C(C)Oc2ccccc2)CC1 (stereo unspecified),19,6
COc1nc2cn(C3CCCC3)c(O)c2cc1C(=O)Nc1cnc2n1CCCC2,2,0
COc1ccc(OC)c(Nc2nc3ccccc3nc2NS(=O)(=O)c2cccc3nsnc23)c1,2,-2
CC(C)N(C(=O)Cn1cnc2c(cnn2C2CCS(=O)(=O)C2)c1=O)c1ccccc1 (stereo unspecified),7,3
Cc1ccc(NC(=O)C(=O)NCCC(c2ccccc2)c2ccccc2)c([N+](=O)[O-])c1,-4,1
